# High-throughput results (PubChem)
# Mtb hypoxia rep: PubChem AID 1159583. fluorescence inhibition, % (no concentration beside the values). M. tuberculosis hypoxia-regulated fluorescent reporter, fluorescence. hit rate 0.1% among 300,000;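 active means 35 to 45% if threefold the growth effect, above 45% if 1.5-fold the growth effect; inactive means the rest, general growth blockers included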;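 further: wells of about 50 µL received 100 nL stock; 0% = vehicle wells and 100% = reference inhibitor wells; whole bacteria with a GFP reporter of the hypoxia response; strong numbers were not always called active; many hits fall short of the cut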
# RN4220 kill: growth inhibition of S. aureus RN4220, primary screen, OD600 | AID 1259311, 2017 | inhibition, % (test concentration not listed) | hit rate 0.33% among 330,000 | 16 h;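 active means z-score of -3 or lower and OD600 up to 0.18 on both plates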;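 further: plate controls were untreated cells for no effect and reference antibiotic for full effect; stock transfer was 100 nL into about 80 µL; one replicate is shown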
# Sa ugtP lethal: growth inhibition of ugtP-null S. aureus, primary screen, RN4220 ugtP deletion, OD600; 16 h; some inactives read as strong as hits; growth inhibition, % (concentration not given with the values); hit rate 0.54% among 330,000;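 active means z-score under -3 and OD600 up to 0.15 on both plates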;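 further: plate controls were untreated wells for no effect and antibiotic for full effect; wells of about 80 µL received 100 nL stock; the first replicate is given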
# Autofluor counter: counter-screen for toxin protease inhibitors: compound fluorescence. compound autofluorescence counterscreen, microsphere flow cytometry; active compounds read high. fluorescence intensity (concentration not given with the values). hit rate 3.1% among 360,000;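 active means at least 3 SD above the mean of all compounds, about 16000 in these data; inconclusive means too few beads counted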;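 further: 100 nL of 1 mM stock went into each well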
# PrP 5UTR inh: inhibition of PrP 5' UTR reporter expression. cell-based PrP 5' UTR mRNA reporter, plate reader. inhibition, % (no concentration beside the values). hit rate 0.35% among 340,000. AID 488862, 2010;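 active means every replicate at 50% or more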;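 further: 0 = median of the neutral control wells; tested in H4 reporter cells; numbers are from one replicate; inactives centre near -14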
# BJeLR lethal: MLPCN primary cell-based screen for lethality selective to Ras in HRASV12 cells; hit rate 0.17% among 300,000; inhibition, % (no concentration beside the values); AID 1554, 2009; BJeLR (HRASV12) viability, CellTiter-Glo ATP luminescence, 48 h; reference of the scale not given here;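 active means replicate mean above 50%; inconclusive means above 50% but judged a plate artefact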;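 further: 50 nL library stock added to about 25 µL; numbers are from one replicate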
# Mtb hypoxia rep growth: also measured in Mtb hypoxia rep; calls as there; growth inhibition, %; measured here: M. tuberculosis growth (absorbance);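 0% = vehicle and 100% = reference antibiotic; read after six days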
# * marks the source's active call; other numbers are inactive results; ? = inconclusive; . = not tested or not shown.
SMILES,Mtb hypoxia rep,Mtb hypoxia rep growth,RN4220 kill,Sa ugtP lethal,Autofluor counter,PrP 5UTR inh,BJeLR lethal
Cc1cc(NC(=O)CSc2nc(C(C)(C)C)nc3ccccc23)no1,-1,-3,4.7,4,4249,-31,9
COc1ccc(CN2CCNCC2)cc1,6,1,3.5,2,3000,7,-5
O=C(C[n+]1cnn(CC(=O)c2ccc(Cl)cc2Cl)c1)c1ccc([N+](=O)[O-])cc1,-2,6,26,-19,1943,-29,-8
Cc1ccc(C(=O)N/C(=C\c2ccco2)C(=O)NCCN2CCOCC2)cc1,14,-3,2.6,10,3738,-28,-1
O=C(Nc1cccc(S(=O)(=O)N2CCOCC2)c1)C(c1ccccc1)N1CCCCC1 (configuration not stated),1,13,2.0,5,4479,-8,7
O=C1CN2C(=N1)N(Cc1ccccc1)c1ccccc12,5,4,2.5,-1,3661,3,-13
CC(=O)OCC(=O)C1(O)CCC2C3CCC4=CC(=O)C=CC4(C)C3C(=O)CC21C (configuration not stated),2,3,3.7,5,3062,-13,.
Cc1cc(C(=O)Nc2nc(-c3ccccn3)cs2)ccc1[N+](=O)[O-],6,4,26,0,4644,2,8
O=C(CCn1c(=S)[nH]c2ccccc2c1=O)N1CCOCC1,0,0,0.9,8,5803,-12,-8
O=c1[nH]c(=O)n(CCc2ccc(F)cc2)c(O)c1C=NCc1ccc2c(c1)OCO2,3,1,1.2,-2,4304,-8,-7
O=C(N/N=C/C1CC=CCC1)c1ccc(O)cc1O (configuration not stated),.,.,.,.,2570,-11,-4
C=CCN1CCN(C(c2cc(OC)ccc2OC)c2nnnn2CC2CCCO2)CC1 (configuration not stated),.,.,-1.8,-1,2444,-24,-2
Cc1ccc2[nH]c3c(NCCCN4CCCC4=O)ncnc3c2c1,11,9,5.0,2,3284,-25,6
Cc1c(C=O)c(=O)n(-c2ccccc2)n1C,-2,5,1.5,5,2408,-19,-6
S=C(NCc1ccc(Cl)cc1)NN1CCOCC1,3,2,0.4,6,5154,-5,1
COc1ccc(CC(=O)NNC(=O)COc2ccc(Cl)cc2C)cc1S(=O)(=O)N1CCOCC1,2,-6,2.4,2,3201,-7,.
CCOC(=O)c1sc(NC(=S)NC(=O)c2cccc(Cl)c2)c(C(=O)OCC)c1C,14,0,-3.5,-1,3595,-23,0
Cc1c(C2Nc3ccccc3NC3=C2C(=O)CC(C)(C)C3)cnn1C (configuration not stated),11,5,-0.7,6,3743,-18,-3
COCCN=C1NN=C(c2cc(C)n(CC3CCCO3)c2C)CS1 (configuration not stated),-1,7,2.4,4,3848,15,5
Fc1ccc(-c2noc(C3CCN(Cc4cccnc4)CC3)n2)cc1,.,.,-0.2,8,4923,-21,16
O=C(CS(=O)c1cccc(C(F)(F)F)c1)Nc1ccccc1Cl (configuration not stated),9,5,4.4,-5,22990*,-6,0
Cc1[nH]c2ccccc2c1C=NNc1cccc(C(=O)O)c1,7,0,5.6,10,.,.,.
CC(C(=O)Nc1ccc(F)cc1Cl)N1CCN(S(=O)(=O)c2cccs2)CC1 (configuration not stated),8,7,7.5,7,8811,-7,.
CCCC(=O)Nc1ccc(C(=O)NCc2ccccn2)cc1,-5,-7,1.5,7,4434,-3,9
COc1cc(/C=N/N(C)C)ccc1OC(=O)c1cccs1,.,.,.,.,5187,-13,-10
CCOC(=O)C1=CN(CC)S(=O)(=O)NC1c1cccc(OC)c1 (configuration not stated),1,1,2.3,3,3632,-15,.
Cc1nc(N/N=C/c2ccc(Br)cc2)cc(N2CCOCC2)n1,.,.,.,.,3407,-31,-12
COC(=O)c1ccc2c(c1C(=O)OC)CN(S(=O)(=O)C(C)(C)C)[C@@H]2CCO,-2,1,2.5,-6,3712,-6,.
O=C(NCc1cccc(F)c1)C1CCC(=O)N(CCCN2CCOCC2)C1 (configuration not stated),4,15,-1.9,-2,5618,-7,-3
Cc1nc(SCCC(=O)O)c2cc(-c3ccccc3)sc2n1,-2,3,26,-8,5135,50,1
CN1CCN(CCOCCOc2ccc(Br)cc2Cl)CC1,4,6,3.4,8,4117,-25,0
O=C(N/N=C\c1cccc(Cl)c1)c1ccc(Cn2cccn2)o1,.,.,.,.,9995,-25,-15
CC(Nn1cnnc1)c1cc(Cl)ccc1O (configuration not stated),-8,-5,0.6,0,3629,-5,-1
O=c1c2ccccc2nc2c3ccccc3c(NCc3cccnc3)nn12,-11,14,13,-11,3181,1,13
Cc1nc2ccccc2cc1C(=O)N/N=C/c1ccco1,.,.,.,.,2561,-28,6
COc1ccc2[nH]c(C)c(CCNC(=S)Nc3ccc(F)cc3)c2c1,15,5,4.7,-5,2511,-14,-2
Cc1ccc(-n2c(SCC(=O)Nc3ccc(Cl)cc3)nc(O)cc2=O)cc1,-4,-4,5.5,-9,4902,-22,-1
O=C(Nc1ccc(Cl)cc1)c1ccc(-n2cncn2)c([N+](=O)[O-])c1,.,.,.,.,24392*,-25,0
O=C1C[C@@H]2CCN3C(=O)CCC[C@@H]([C@H]23)[C@H]1Cc1ccccc1,4,-5,2.6,12,3786,-15,.
COCCNc1cc(NCCOC)c([N+](=O)[O-])cc1[N+](=O)[O-],-15,9,1.6,3,2133,-17,-3

# As a short view, some entries already given:
SMILES,Mtb hypoxia rep,Mtb hypoxia rep growth,RN4220 kill,Sa ugtP lethal,Autofluor counter,PrP 5UTR inh,BJeLR lethal
Cc1nc2ccccc2cc1C(=O)N/N=C/c1ccco1,.,.,.,.,2561,-28,6
COc1ccc2[nH]c(C)c(CCNC(=S)Nc3ccc(F)cc3)c2c1,15,5,4.7,-5,2511,-14,-2
Cc1ccc(-n2c(SCC(=O)Nc3ccc(Cl)cc3)nc(O)cc2=O)cc1,-4,-4,5.5,-9,4902,-22,-1
O=C(Nc1ccc(Cl)cc1)c1ccc(-n2cncn2)c([N+](=O)[O-])c1,.,.,.,.,24392*,-25,0
O=C1C[C@@H]2CCN3C(=O)CCC[C@@H]([C@H]23)[C@H]1Cc1ccccc1,4,-5,2.6,12,3786,-15,.
COCCNc1cc(NCCOC)c([N+](=O)[O-])cc1[N+](=O)[O-],-15,9,1.6,3,2133,-17,-3

# More entries follow.
SMILES,Mtb hypoxia rep,Mtb hypoxia rep growth,RN4220 kill,Sa ugtP lethal,Autofluor counter,PrP 5UTR inh,BJeLR lethal
O=C(Nc1cccc(-c2nc3cccnc3s2)c1)c1cccnc1Cl,3,-2,6.9,4,3341,-21,4
CCN1CCN(CCCNC(=O)C2CCCN(c3nnc(-n4cccc4)s3)C2)CC1 (configuration not stated),8,4,0.8,-3,2990,5,-2
CCc1ccc(NC(=O)c2ccc3c(c2)C(=O)N(CCOC)C3Nc2ccc(CC)cc2)cc1 (configuration not stated),0,4,-2.2,4,6031,38,-7
Cc1ccccc1NC(=O)CSc1cn[nH]n1,19,11,3.8,-3,3496,-14,7
CN(CCNC(=O)Cn1c(=O)sc2ccccc21)Cc1ccccc1,.,.,-4.3,-10,4485,-13,0
OC[C@@H]1[C@@H](c2ccc(F)cc2)C(c2cccc(Cl)c2)=NN1c1ccccc1,0,5,-12,-9,4036,-18,.
CC(C)CN1C(=O)C(=O)N(CC(=O)c2ccc3c(c2)CCCC3)C1=O,7,2,-0.1,1,4703,-39,.
CCOc1ccc(N(Cc2cc3ccc(C)cc3[nH]c2=O)S(C)(=O)=O)cc1,4,9,0.7,4,22539*,-3,-7
Cc1c(C(=O)Nc2nccs2)oc2ccc(F)cc12,8,7,6.7,2,.,-57,.
Cc1ccccc1NC(=O)N1CCCC1C(=O)NCc1ccccc1 (configuration not stated),-6,2,3.1,12,.,-9,4
CN(C)S(=O)(=O)c1ccc(NC(=S)NC(=O)c2cccs2)cc1,10,20,5.3,11,3733,-23,2
N/C(=N\c1nc(CSc2nc3ccccc3s2)cc(=O)[nH]1)Nc1ccc(F)cc1,-1,-3,11,-1,5253,-9,16
CCOc1ccc(N(C)S(=O)(=O)c2ccc(C)c(C(=O)NCCc3ccc(OC)cc3)c2)cc1,-2,1,1.6,1,?,-23,.
COc1cccc(OCC(O)CN2CCC(CN3C(=O)c4cccc5cccc(c45)C3=O)CC2)c1 (configuration not stated),-3,16,-2.4,-1,4426,-1,3
C#CCOCCOCCOCCNc1nc(N2CCN(C(=O)C(CCC(=O)O)n3cc(C(N)CC(C)C)nn3)CC2)nc(N2CCN(C(=O)C(Cc3ccc(O)cc3)n3cc(C(N)C(C)CC)nn3)CC2)n1 (configuration not stated),2,-5,3.5,0,.,.,.
CCC(=O)N=c1n(C)c2ccccc2n1CCOc1ccccc1,.,.,.,.,2461,-26,-8
O=C(CN1CCN(Cc2ccc(F)cc2)C1=O)NC1CCCC1,12,-3,4.8,3,4832,-8,2
CCN(CC)Cc1c(C(=O)N/N=C/c2ccc(C)o2)nnn1-c1nonc1N,.,.,.,.,3842,-22,-9
COc1cccc(C2Oc3ccc(OC)cc3C(=O)C2OC(=O)Nc2cc(OC)c(OC)c(OC)c2)c1 (configuration not stated),-2,9,-2.5,-1,.,.,.
CC(=O)c1c(COC(=O)c2ccc(Cl)cc2)nc2ccccc2[n+]1[O-],5,3,0.3,3,4511,-71,0
Cc1cc(C)c(S(=O)(=O)N2CCOCC2)cc1C,11,-11,7.6,10,4556,-41,-1
Cn1c(N)c(C(=O)COC(=O)c2ccccc2NCc2ccco2)c(=O)n(C)c1=O,1,4,-1.0,1,4651,-25,2
CC(C)C(C(=O)Nc1ccc2c(c1)OCCO2)N1C(=O)c2ccccc2C1=O (configuration not stated),6,12,1.3,-13,8355,-10,0
O=C(Cn1ncc2c(=O)oc3ccccc3c21)N1CCCc2ccccc21,.,.,2.9,7,3603,-3,-1
CCOc1cc2[nH]c(=O)n(CCCN3CCCC3=O)c(=O)c2cc1OCC,7,11,3.5,0,8628,-20,6
Cc1cccc(C(O)(C(=O)NNc2ccc3ccccc3n2)c2cccc(C)c2)c1,14,0,-5.5,2,2105,-19,-8
C=CCN1C(=O)/C(=C/c2ccc(N3CCOCC3)o2)C(=O)NC1=S,11,7,9.1,0,10237,19,-3
COc1cc2[nH]c(=S)nc(NC3CCCCCC3)c2cc1OC,4,-2,1.4,-8,2595,-3,.
COc1cc(-c2cc(N)n(S(=O)(=O)c3ccccc3)n2)cc(OC)c1OC,10,9,2.8,9,6124,-26,5
Cc1cc(NC(=O)c2ccc(S(=O)(=O)N3CCOCC3)cc2)no1,2,13,3.9,3,3526,-14,-1
NCCCCC1NC(=O)C(CCC(=O)O)NC(=O)c2cc([N+](=O)[O-])cc(I)c2SCC(C(=O)NCC(N)=O)NC1=O (configuration not stated),-5,-12,7.8,3,.,.,.
CC(Oc1cccc2ccccc12)C(=O)N/N=C/c1cccnc1 (configuration not stated),.,.,.,.,4465,7,-9
COc1ccc(C(CC(=O)O)N2C(=O)CCC2=O)cc1 (configuration not stated),7,1,3.2,0,3361,-34,-1
Cc1cccc2sc(NC(=O)C3CSC4(C)CCC(=O)N34)nc12 (configuration not stated),8,10,0.4,-4,5255,-9,1
COc1cc(C(=O)N/N=C/c2ccsc2C)cc(OC)c1OC,.,.,.,.,2314,17,23
COc1cc2ccccc2c2c1CCCC2=O,11,12,-11,-4,3062,-6,0
CC(O)CO (configuration not stated),5,13,2.1,5,6037,-2,.
Cc1cc(C)c(S(=O)(=O)N2CCN(C(=O)C(C)Cn3cncn3)CC2)c(C)c1 (configuration not stated),-7,-6,2.6,9,5456,-14,-7
COc1cccc(CNc2ncc(-c3ccccc3)n2C)c1,-7,2,0.9,2,3603,-3,14
CC(C)(C)S(=O)(=O)N1Cc2cc(=O)n(Cc3ccccc3)c(CCO)c2[C@@H]1CCO,-2,-1,5.5,6,3393,-4,.
NC(=S)NN=C(c1ccc(F)cc1)C1CC1,5,8,6.0,5,4164,-13,.
Nc1nc(Nc2ccccc2)nc(NCc2ccco2)c1[N+](=O)[O-],9,-1,-7.7,5,2081,-6,1
CCCCNC(=O)Cn1cnc2c(cnn2-c2ccc(C)c(C)c2)c1=O,4,5,2.5,11,8461,-8,-2
c1ccc(C2Nc3ccccc3Oc3ccccc32)cc1 (configuration not stated),.,.,8.0,17,3880,-7,5
CCc1cc2c(=O)[nH]c(N3CCCC3)nc2s1,.,.,.,.,2137,-41,-4
